Env fusion inh = blocks HIV Env-driven cell-cell fusion. inhibition, % at 12.3 µM. HeLa-JRFL Env/CEM21 cell fusion, luciferase. 1.1% of 360,000 active;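 active = mean replicate inhibition score of at least 50 and every replicate individually at or above 50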;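 note: 0% = plate neutral controls and 100% = maraviroc near 300 nM; one replicate is shown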
Yeast UUG start = alters start codon recognition fidelity in yeast. S. cerevisiae UUG-firefly luciferase reporter, luminescence/redox ratio. activity score, % at 18.7 µM. 0.13% of 350,000 active. AID 602363;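 active = replicate mean at a twofold rise or more, about +100% in these data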;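 note: firefly luciferase made from a UUG start codon reports start codon fidelity; reporter light over untreated wells divided by growth signal over untreated wells; some hits fall short of that in this replicate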
The depositor's hits bear a star; [ ] = dose if it differs, or a comment.

SMILES | Env fusion inh | Yeast UUG start
O=C(O)C[C@@H]1C[C@H]2c3cc(NC(=O)CC4CC4)ccc3O[C@H]2[C@@H](CO)O1 | 3[16.7 µM] | -9
O=C(C1=C[C@H](c2ccc(Br)cc2)C[C@H](OCc2ccc(CO)cc2)O1)N1CCN(Cc2ccccc2)CC1 | -10[16.7 µM] | 9
C[C@@H]1CN([C@H](C)CO)C(=O)c2cccc(NC(=O)Nc3ccccc3)c2O[C@@H]1CN(C)C(=O)Nc1ccccc1 | -50[16.7 µM] | -7
COc1ccc(NC(=O)N(C)C[C@H]2OCCCC[C@H](C)Oc3ccc(NC(=O)c4ccccc4)cc3C(=O)N([C@H](C)CO)C[C@@H]2C)cc1 | -58[16.7 µM] | 8
COc1ccc(NC(=O)Nc2ccc3c(c2)[C@@H]2C[C@H](CC(=O)NCC4CC4)O[C@@H](CO)[C@@H]2O3)cc1 | -12[16.7 µM] | -4
COCC(=O)N(C)C[C@H]1Oc2cc(C#CC(C)(C)O)ccc2S(=O)(=O)N([C@@H](C)CO)C[C@H]1C | 17[16.7 µM] | 4
C[C@@H]1CN([C@@H](C)CO)C(=O)c2cc(NS(=O)(=O)c3cccs3)ccc2O[C@@H](C)CCCCO[C@H]1CN(C)C(=O)c1ccncc1 | 14[16.7 µM] | 7
CO[C@@H]1CN(C)C(=O)c2ccc(NC(C)=O)cc2OC[C@@H](C)N(C(=O)CC2CC2)C[C@H]1C | 10[16.7 µM] | -17
C[C@H]1CN([C@@H](C)CO)C(=O)c2cc(NC(=O)C3CC3)ccc2O[C@H]1CN(C)C(=O)Nc1ccccc1 | 14[16.7 µM] | 0
C[C@@H]1CN([C@H](C)CO)C(=O)Cc2cc(NC(=O)Nc3cccc4ccccc34)ccc2O[C@@H]1CN(C)C(=O)Nc1cccc2ccccc12 | 4[16.7 µM] | -15
N#C[C@H]1N[C@H](CO)[C@H]1c1ccc(C#CC2CCCC2)cc1 | -26[16.7 µM] | -22
C[C@@H]1CCCCO[C@@H](CN(C)Cc2ccc3c(c2)OCO3)[C@@H](C)CN([C@H](C)CO)C(=O)c2cc(NC(=O)Cc3ccccc3)ccc2O1 | 3[16.7 µM] | 13
COc1ccc(S(=O)(=O)Nc2ccc3c(c2)C(=O)N([C@H](C)CO)C[C@@H](C)[C@H](CN(C)Cc2ccc(Oc4ccccc4)cc2)O3)cc1 | 16[16.7 µM] | 10
C[C@@H]1CCCCO[C@@H](CN(C)C)[C@H](C)CN([C@H](C)CO)C(=O)c2cc(NC(=O)NC3CCCCC3)ccc2O1 | -7[16.7 µM] | 4
CO[C@@H]1CN(C)C(=O)c2cc(NS(=O)(=O)c3ccccc3)ccc2OC[C@H](C)N(C(=O)NC(C)C)C[C@@H]1C | -21[16.7 µM] | 5
O=C(C[C@@H]1C=C[C@H](NC(=O)Nc2cc(F)ccc2F)[C@@H](CO)O1)NCc1ccccn1 | -1[16.7 µM] | -21
C[C@@H]1CN([C@H](C)CO)C(=O)c2cc(/C=C/c3ccccc3)cnc2O[C@@H]1CN(C)S(=O)(=O)c1cn(C)cn1 | -12[16.7 µM] | -1
C[C@@H]1CN([C@@H](C)CO)C(=O)c2cc(NS(=O)(=O)c3cccs3)ccc2O[C@@H](C)CCCCO[C@H]1CN(C)Cc1ccc2c(c1)OCO2 | -13[16.7 µM] | 40
COCC(=O)Nc1ccc2c(c1)[C@@H]1C[C@@H](CC(=O)NC3CCCCC3)O[C@H](CO)[C@@H]1O2 | -16[16.7 µM] | -4
COc1ccccc1-c1cn(CC[C@H]2CC[C@H](NC(=O)C3CCOCC3)[C@H](CO)O2)nn1 | -22[16.7 µM] | 22
C[C@@H]1CCCCO[C@H](CN(C)C(=O)Nc2cccc3ccccc23)[C@@H](C)CN([C@H](C)CO)C(=O)c2cc(NS(=O)(=O)c3cn(C)cn3)ccc2O1 | 3[16.7 µM] | -2
CNC(=O)C[C@@H]1CC[C@@H]2[C@@H](COc3ccc(NS(=O)(=O)c4ccccc4C)cc3C(=O)N2C)O1 | 15[16.7 µM] | -6
C[C@@H]1CN([C@@H](C)CO)C(=O)c2cc(NC(=O)CCC(F)(F)F)ccc2O[C@@H](C)CCCCO[C@@H]1CN(C)C(=O)CCC(F)(F)F | 25[16.7 µM] | 4
COc1ccc(S(=O)(=O)N[C@@H]2C=C[C@H](CC(=O)O)O[C@H]2CO)cc1 | -59[16.7 µM] | -19
C[C@H](CO)N1C[C@H](C)[C@@H](CN(C)S(=O)(=O)c2cn(C)cn2)OCCCC[C@H](C)Oc2ccc(NC(=O)Nc3ccc(F)cc3)cc2C1=O | 36[16.7 µM] | 5
COCC(=O)Nc1ccc2c(c1)OC[C@@H](C)N(C(C)=O)C[C@@H](C)[C@@H](OC)CN(C)C2=O | 0[16.7 µM] | 4
O=C(CCN1CCCCC1)NCC[C@@H]1CC[C@@H](NC(=O)C2CCOCC2)[C@@H](CO)O1 | -4[16.7 µM] | 6
CN1C(=O)c2cc(NC(=O)Nc3ccccc3Cl)ccc2OC[C@H]2O[C@H](CC(=O)O)CC[C@H]21 | -17[16.7 µM] | -15
C[C@@H]1CN([C@@H](C)CO)C(=O)c2cccc(NC(=O)NC3CCCCC3)c2O[C@@H]1CN(C)Cc1ccc(C(F)(F)F)cc1 | 15[16.7 µM] | 5
CCCNC(=O)C[C@@H]1CC[C@@H]2[C@@H](COc3ccc(NC(=O)NCC)cc3C(=O)N2C)O1 | 2[16.7 µM] | -11
C[C@@H]1CN([C@@H](C)CO)C(=O)c2cc(NC(=O)Cn3cnnn3)ccc2O[C@H]1CN(C)C(=O)Nc1ccccc1 | 13[16.7 µM] | -6
COc1ccc(S(=O)(=O)N(C)C[C@H]2OCCCC[C@H](C)Oc3ccc(NC(=O)NC4CCCCC4)cc3C(=O)N([C@H](C)CO)C[C@H]2C)cc1 | -23[16.7 µM] | -3
CCC(=O)N1C[C@H](C)[C@H](OC)CN(C)C(=O)c2cc(NS(=O)(=O)CC)ccc2OC[C@@H]1C | -5[16.7 µM] | 6
Cc1noc(C)c1NC(=O)N(C)C[C@H]1Oc2ccc(NC(=O)C3CC3)cc2CC(=O)N([C@H](C)CO)C[C@H]1C | -16[16.7 µM] | 4
COc1ccc(-c2cn(CC[C@@H]3CC[C@H](NS(=O)(=O)c4ccccc4C)[C@H](CO)O3)nn2)cc1 | 16[16.7 µM] | -3
COc1ccc(S(=O)(=O)Nc2ccc3c(c2)CC(=O)N([C@@H](C)CO)C[C@H](C)[C@@H](CN(C)Cc2ccc(Oc4ccccc4)cc2)O3)cc1 | -8[16.7 µM] | 3
Cc1ccc(S(=O)(=O)Nc2ccc3c(c2)C(=O)N([C@@H](C)CO)C[C@@H](C)[C@@H](CN(C)C(=O)c2ccncc2)OCCCC[C@H](C)O3)cc1 | -4[16.7 µM] | 5
CN(C)C(=O)C[C@@H]1C=C[C@@H](NC(=O)NC2CCCC2)[C@@H](CO)O1 | 10[16.7 µM] | 7
C[C@H](NC(=O)C[C@H]1C[C@H]2c3cc(NS(C)(=O)=O)ccc3O[C@H]2[C@@H](CO)O1)c1ccccc1 | -7[16.7 µM] | -8
C[C@@H]1CCCCO[C@@H](CN(C)Cc2ccc(Cl)c(Cl)c2)[C@H](C)CN([C@@H](C)CO)C(=O)c2cc(NC(=O)Nc3ccc(F)cc3)ccc2O1 | 31[16.7 µM] | -2
CS(=O)(=O)Nc1ccc2c(c1)[C@H]1C[C@H](CC(=O)NCc3cccnc3)O[C@H](CO)[C@H]1O2 | -7[16.7 µM] | -18
CO[C@H]1CN(C)C(=O)c2ccc(NC(=O)Nc3ccc(F)cc3)cc2OC[C@@H](C)NC[C@H]1C | 4[16.7 µM] | 0
O=C(C[C@@H]1C[C@H]2c3cc(NC(=O)CC4CC4)ccc3O[C@H]2[C@H](CO)O1)NCc1ccccn1 | -37[16.7 µM] | -27
Cc1noc(C)c1NC(=O)N(C)C[C@H]1OCCCC[C@H](C)Oc2ccc(NC(=O)c3ccncc3)cc2C(=O)N([C@H](C)CO)C[C@@H]1C | 2[16.7 µM] | -4
COc1ccc(S(=O)(=O)Nc2ccc3c(c2)CC(=O)N([C@H](C)CO)C[C@@H](C)[C@@H](CN(C)S(=O)(=O)c2ccccc2)O3)cc1 | -16[16.7 µM] | -5
C[C@@H]1CN([C@@H](C)CO)C(=O)c2cc(C#Cc3ccccn3)cnc2O[C@@H]1CN(C)CC1CCOCC1 | -10[16.7 µM] | -2
C[C@H]1CN([C@@H](C)CO)S(=O)(=O)c2ccc(-c3cccnc3)cc2O[C@H]1CN(C)C(=O)c1ccc2c(c1)OCO2 | 31[16.7 µM] | 6
C[C@H]1CN([C@@H](C)CO)C(=O)c2cc(NC(=O)Nc3cccc4ccccc34)ccc2O[C@H]1CN(C)C(=O)NC1CCCCC1 | -6[16.7 µM] | -5
C[C@@H]1CCCCO[C@H](CN(C)C)[C@@H](C)CN([C@H](C)CO)C(=O)c2cc(NC(=O)Nc3ccc(F)cc3)ccc2O1 | -2[16.7 µM] | 4
CN(C)CC(=O)Nc1ccc2c(c1)[C@H]1C[C@H](CC(=O)NCc3ccccc3F)O[C@@H](CO)[C@H]1O2 | -4[16.7 µM] | -3
COc1ccc(NC(=O)N(C)C[C@@H]2OCCCC[C@H](C)Oc3ccc(NC(=O)c4ccncc4)cc3C(=O)N([C@H](C)CO)C[C@@H]2C)cc1 | -1[16.7 µM] | -3
CO[C@@H]1CN(C)C(=O)c2cc(NS(=O)(=O)c3ccc(Cl)cc3)ccc2OC[C@@H](C)NC[C@@H]1C | -5[16.7 µM] | 8
C[C@H](CO)N1C[C@H](C)[C@@H](CN(C)C(=O)C2CCCCC2)Oc2ncc(C3=CCCC3)cc2C1=O | 19[16.7 µM] | 11
C[C@H](CO)N1C[C@H](C)[C@@H](CN(C)C(=O)Nc2ccc(F)cc2)OCCCC[C@H](C)Oc2ccc(NC(=O)Nc3ccc4c(c3)OCO4)cc2C1=O | 1[16.7 µM] | -1
CCCC#Cc1ccc2c(c1)O[C@H](CN(C)C(=O)COC)[C@@H](C)CN([C@@H](C)CO)S2(=O)=O | -10[16.7 µM] | -1
COc1ccc(CN(C)C[C@@H]2OCCCC[C@@H](C)Oc3ccc(NS(=O)(=O)c4ccc(C)cc4)cc3C(=O)N([C@H](C)CO)C[C@@H]2C)cc1 | 25[16.7 µM] | -6
C[C@@H]1CCCCO[C@H](CN(C)C)[C@H](C)CN([C@@H](C)CO)C(=O)c2cc(NC(=O)Nc3ccccc3)ccc2O1 | -12[16.7 µM] | 7
CC(C)NC(=O)Nc1ccc2c(c1)C(=O)N([C@H](C)CO)C[C@H](C)[C@H](CN(C)S(=O)(=O)c1cn(C)cn1)O2 | -30[16.7 µM] | 0
CCCC(=O)Nc1ccc2c(c1)C(=O)N(C)[C@H]1CC[C@H](CC(=O)Nc3ccc(C)cc3)O[C@@H]1CO2 | 5[16.7 µM] | 8
C[C@@H]1CN([C@H](C)CO)C(=O)c2cc(NS(=O)(=O)c3ccc(Cl)cc3)ccc2O[C@H]1CN(C)S(=O)(=O)c1cccs1 | -7[16.7 µM] | -8

An excerpt of these results, field by field.
CCCC(=O)Nc1ccc2c(c1)C(=O)N(C)[C@H]1CC[C@H](CC(=O)Nc3ccc(C)cc3)O[C@@H]1CO2
  Env fusion inh: 5[16.7 µM]; Yeast UUG start: 8
C[C@@H]1CN([C@H](C)CO)C(=O)c2cc(NS(=O)(=O)c3ccc(Cl)cc3)ccc2O[C@H]1CN(C)S(=O)(=O)c1cccs1
  Env fusion inh: -7[16.7 µM]; Yeast UUG start: -8

Later entries
SMILES | Env fusion inh | Yeast UUG start
CCNC(=O)C[C@@H]1CC[C@@H]2[C@@H](COc3ccc(NC(=O)Nc4cccc(F)c4)cc3C(=O)N2C)O1 | 1[16.7 µM] | 10
CCC(=O)Nc1ccc2c(c1)OC[C@@H](C)N(C(=O)c1ccncc1)C[C@H](C)[C@H](OC)CN(C)C2=O | 0[16.7 µM] | -15
C[C@@H]1CN([C@H](C)CO)S(=O)(=O)c2ccc(C3=CCCCC3)cc2O[C@@H]1CN(C)C(=O)c1ccccc1 | 18[16.7 µM] | 12
C[C@H](NC(=O)C[C@@H]1C=C[C@@H](NC(=O)C2CCOCC2)[C@H](CO)O1)c1ccccc1 | -20[16.7 µM] | -7
C[C@H]1CN([C@@H](C)CO)C(=O)c2cc(NC(=O)Nc3ccc(C(F)(F)F)cc3)ccc2O[C@@H]1CN(C)C(=O)Nc1ccc(F)cc1 | -73[16.7 µM] | -3
COCC#Cc1cnc2c(c1)C(=O)N([C@H](C)CO)C[C@@H](C)[C@H](CN(C)C(=O)Nc1c(C)noc1C)O2 | -18[16.7 µM] | 4
C[C@@H]1CN([C@H](C)CO)S(=O)(=O)c2ccc(C3=CCCC3)cc2O[C@@H]1CN(C)C(=O)c1cnccn1 | 41[16.7 µM] | 19
[N-]=[N+]=NCc1ccccc1C[C@@]1(C(=O)N2CCOCC2)N=C(c2ccc(OCCCO)cc2)O[C@@H]1c1ccccc1 | 20[16.7 µM] | 14

In a second layout: entries from further up
Env fusion inh,Yeast UUG start,canonical_smiles
2[16.7 µM],-4,Cc1noc(C)c1NC(=O)N(C)C[C@H]1OCCCC[C@H](C)Oc2ccc(NC(=O)c3ccncc3)cc2C(=O)N([C@H](C)CO)C[C@@H]1C
-16[16.7 µM],-5,COc1ccc(S(=O)(=O)Nc2ccc3c(c2)CC(=O)N([C@H](C)CO)C[C@@H](C)[C@@H](CN(C)S(=O)(=O)c2ccccc2)O3)cc1
-10[16.7 µM],-2,C[C@@H]1CN([C@@H](C)CO)C(=O)c2cc(C#Cc3ccccn3)cnc2O[C@@H]1CN(C)CC1CCOCC1
31[16.7 µM],6,C[C@H]1CN([C@@H](C)CO)S(=O)(=O)c2ccc(-c3cccnc3)cc2O[C@H]1CN(C)C(=O)c1ccc2c(c1)OCO2

The list is partial. The share of hits here may be higher or lower than overall.
